# Screening data from PubChem.
# TRPML1 agonist = human mucolipin-1 channel agonism | 0.12% of 410,000 active | Q9GZU1 | TRPML1-expressing cells, Ca2+ dye fluorescence, FDSS; host cell line not named in the record; reference of the full effect not given here | activation, % (no concentration beside the values); in the data active = activation above about 50%; inconclusive = about 30% to 50%; inactive = below about 30%; also: 0% is about no effect; the text of the record puts the active cut at 80%
# Target sequence (Q9GZU1 whole entry, looked up): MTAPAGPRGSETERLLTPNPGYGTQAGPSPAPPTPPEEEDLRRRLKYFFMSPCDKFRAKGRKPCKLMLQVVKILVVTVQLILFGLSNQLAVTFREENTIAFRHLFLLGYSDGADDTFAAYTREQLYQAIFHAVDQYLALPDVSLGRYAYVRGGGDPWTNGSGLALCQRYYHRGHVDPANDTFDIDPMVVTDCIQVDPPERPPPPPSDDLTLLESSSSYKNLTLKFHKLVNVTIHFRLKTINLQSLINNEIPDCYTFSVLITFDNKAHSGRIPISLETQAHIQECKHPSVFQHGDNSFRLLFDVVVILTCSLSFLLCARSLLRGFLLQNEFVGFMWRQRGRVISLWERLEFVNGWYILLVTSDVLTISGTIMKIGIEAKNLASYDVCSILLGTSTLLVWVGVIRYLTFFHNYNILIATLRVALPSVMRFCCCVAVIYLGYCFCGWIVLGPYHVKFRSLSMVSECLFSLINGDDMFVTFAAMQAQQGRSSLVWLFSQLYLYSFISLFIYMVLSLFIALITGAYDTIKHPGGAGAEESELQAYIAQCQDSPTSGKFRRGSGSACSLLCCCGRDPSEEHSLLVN
#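 Calcium fluorescence on an FDSS kinetic reader gave the read-out. Tet-induced TRPML1-DL cells were plated overnight, dye-loaded (Ca8 with quencher, 45-90 min, room temperature, dark), then read 110 s after compound addition, and again 110 s after 4uM final 54-4 (EC80).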
# PINK1 expr mod = modulators of PINK1 expression | Potency, µM (titrated, usually from 76.6 µM), for the others: at the highest dose activation (PINK1 increase), usual class: activators | AID 624263 | PINK1 immunofluorescence, high-content cytometry, 24 h | 0.2% of 410,000 active; active = well fitted activation curve with a large enough effect; inconclusive = small, poorly fitted or top-dose-only effect; inactive = flat fitted curve, though single readings scatter; cell line not stated here;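 also: potency is read from the fitted curve at half-maximal effect; % of control where 0% means no effect; nearly all actives have a fitted effect of over 65% in size; a mitochondrial uncoupler was the plate control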
#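 Measures PINK1 amount and localization on or inside mitochondria by immunofluorescence. Stable cells get compounds at 5 concentrations for 24 hours before fixation and staining; CCCP controls included.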
# * hit, by the source's call; ? = inconclusive.
cpd	Structure	TRPML1 agonist	PINK1 expr mod
1	COc1ccc(CCNC(=O)c2ccc3c(c2)N(Cc2ccccc2F)C(=O)c2ccccc2S3=O)cc1OC (stereo not drawn)	0.2	0.7%
2	O=[N+]([O-])c1ccc2c(c1)C=C/C2=C\c1ccc(C=S)cc1	-0.5	2.4%
3	Cc1cccc(N2CCN(C(=O)c3cn(C)c4ccc(S(=O)(=O)N(C)C)cc4c3=O)CC2C)c1 (stereo not drawn)	-0.4	2.3%
4	CCCN(CCC)CCCNC(=O)c1cc2c(=O)n(C)c3ccccc3c2s1	0.5	-0.1%
5	CCCCCCCCCC[n+]1cccc2cc(Cl)ccc21	-1.1	?
6	COc1ccc(CNC(=O)CN2C(=O)CCCc3ccccc32)cc1	-0.2	-0.1%
7	CCN(CC)CCNC(=O)c1ccc2c(c1)NC(=O)C(CS(=O)(=O)Cc1ccc(F)cc1Cl)N2 (stereo not drawn)	1.6	0.4%
8	Cc1cc(N2CCN(C)CC2)nc2ccc(NC(=O)Nc3ccccc3Cl)cc12	1.3	-1.7%
9	CC1CCN(c2oc(-c3ccc(OCc4ccccc4Cl)cc3)nc2C#N)CC1	-0.1	0.6%
10	CCCCCCCCCC[n+]1cccc(Br)c1	-0.1	25%

# A different layout for part of the listing above.
# Below each SMILES: TRPML1 agonist, PINK1 expr mod
9: CC1CCN(c2oc(-c3ccc(OCc4ccccc4Cl)cc3)nc2C#N)CC1
    -0.1, 0.6%
10: CCCCCCCCCC[n+]1cccc(Br)c1
    -0.1, 25%

# Looked up above:
# Entry for no. 10 in PINK1 expr mod: 25%
# Entry for no. 8 in PINK1 expr mod: -1.7%
# Entry for no. 9 in TRPML1 agonist: -0.1

# Continued.
cpd	Structure	TRPML1 agonist	PINK1 expr mod
11	COc1ccccc1Cc1nc2ccccc2nc1SCC(=O)Nc1cc(Cl)ccc1OC	2.6	-9.6%
12	Cc1cccc(-c2nc3c4ccccc4nc(NCCc4ccccc4)n3n2)c1	-0.1	2.1%
13	Cc1cn2c(=O)cc(COc3ccc(NC(=O)COc4ccccc4)cc3)nc2s1	-0.7	2.0%
14	CCOc1ccc(C2C(=O)N(C3CCCCC3)CC(=O)N2CCC2=CCCCC2)cc1OC (stereo not drawn)	11	6.9%
15	O=C(Nc1nnc(CCc2ccccc2)s1)C1CCN(C(=O)c2ccco2)CC1	-0.5	0.9%
16	CCCN1CNc2c(c(=O)[nH]c(=S)n2CCc2ccc(C)c(C)c2)C1	-0.6	1.1%
17	CN1c2ccc(Cl)cc2-c2nc(SCC(=O)NCc3ccc(F)cc3)ncc2S1(=O)=O	0.2	2.1%
18	CCn1c2ccccc2c2cc(CN3CCN(Cc4ccccc4C)CC3)ccc21	1.3	0.1%
19	O=C(Cn1cnc2nc3c(cc2c1=O)CCCC3)Nc1ccc(F)cc1Cl	1.7	0.9%
20	Cn1cc(CCCC(=O)NCc2ccccc2Cl)c2ccccc21	2.2	0.6%

# Full records, quoted from the list:
# O=C(Nc1nnc(CCc2ccccc2)s1)C1CCN(C(=O)c2ccco2)CC1 reads TRPML1 agonist: -0.5; PINK1 expr mod: 0.9%
# Cn1cc(CCCC(=O)NCc2ccccc2Cl)c2ccccc21 reads TRPML1 agonist: 2.2; PINK1 expr mod: 0.6%
# CN1c2ccc(Cl)cc2-c2nc(SCC(=O)NCc3ccc(F)cc3)ncc2S1(=O)=O reads TRPML1 agonist: 0.2; PINK1 expr mod: 2.1%

# Additional records.
cpd	Structure	TRPML1 agonist	PINK1 expr mod
21	Cc1ccc(C)c(N2CCN(C(=O)CN3CCSc4ccccc43)CC2)c1	5.1	0.7%
22	COc1ccc(C(=O)N(c2ccc(OC)cc2)S(=O)(=O)c2ccc3c(c2)n(C)c(=O)n3C)cc1	0.1	-1.0%
23	Cc1ccc(NC(=O)C2CCN(S(=O)(=O)c3cccc4nonc34)CC2)c(Cl)c1	-1.1	9.1%
24	COc1ccc(NC(=O)c2c(C)oc3ccc(O)c(CN4CCCCCC4)c23)cc1Cl	1.0	2.2%
25	CCn1cc2nc(SCC(=O)Nc3ccccc3C(F)(F)F)n(Cc3ccc(C)cc3)c(=O)c2n1	1.2	4.6%
26	CCOc1ccc(NC(=O)CC2C(=O)N(c3ccc(Cl)cc3)C(=O)N2Cc2cccs2)cc1 (stereo not drawn)	0.7	3.6%
27	O=C(CC1N=C2c3ccccc3N=C(SCc3ccc(Cl)cc3)N2C1=O)NC1CCCCC1 (stereo not drawn)	-0.5	2.1%
28	COc1ccccc1NC(=O)c1oc2ccccc2c1NC(=O)C1CCCCC1	-0.5	1.2%
29	CCCCNc1oc(-c2ccc(COc3ccccc3C)o2)nc1C#N	1.0	?
30	CCOC(=O)N1CCC2(CC1)OC(=O)C(C)=C2C(=O)NCc1cccc(OC)c1	2.1	0.6%

cpd	Structure	TRPML1 agonist	PINK1 expr mod
31	CCOC(=O)c1cnc2ccc(OCC)cc2c1N1CCN(c2cccc(Cl)c2)CC1	1.2	0.6%
32	O=C(Nc1cccc(F)c1)c1ccc2snnc2c1	1.3	0.3%
33	COC(=O)c1ccccc1NC(=O)c1ccc2c(Cl)c3c(nc2c1)CCCC3	0.1	0.2%
34	Cc1cc2oc(C(=O)Nc3cccc(-c4nc5ccccc5o4)c3)c(C)c2cc1C	0.1	6.0%
35	COc1ccc(CCNC(=O)c2ccc3c(c2)N(Cc2ccccc2C)C(=O)c2ccccc2S3)cc1OC	1.4	0.6%
36	CCc1ccccc1NC(=O)C(CC)Sc1ncnc2c1sc1ccccc12 (stereo not drawn)	2.9	0.3%
37	CCOc1ccccc1NC(=O)c1c(NCc2ccc(C)o2)sc2c1CCC(C)C2 (stereo not drawn)	-0.7	2.7%
38	O=C(Cn1nnc2sc3c(c2c1=O)CCCC3)Nc1ccc(F)c(Cl)c1	2.2	0.1%
39	COc1ccc(N2CCN(CCCNC(=O)Nc3ccccc3Cl)CC2)cc1	-0.7	1.4%
40	CC(C)c1ccccc1NC(=O)C(Cc1c[nH]c2ccccc12)NC(=O)OC(C)(C)C (stereo not drawn)	4.4	0.6%

cpd	Structure	TRPML1 agonist	PINK1 expr mod
41	O=C(Nc1ccc(F)c(F)c1)c1cc(S(=O)(=O)NC2CCCCCC2)ccc1F	2.3	0.5%
42	COC(=O)C1=C(C)NC(=O)NC1c1cn(-c2ccccc2)nc1-c1ccc(OC)c(Cl)c1 (stereo not drawn)	1.5	3.7%
43	COc1ccc(N2CCN(Cc3nc4c(c(=O)n(C)c(=O)n4C)n3C(C)C)CC2)cc1	-0.2	1.6%
44	Cc1cccc(OCC(=O)NCC2(N3CCN(C)CC3)CCCCC2)c1C	1.1	-0.2%
45	CC(Sc1nc2c([nH]c3ccccc32)c(=O)n1-c1ccccc1)c1ccccc1 (stereo not drawn)	1.3	1.5%
46	CCOC(=O)c1ccccc1NC(=O)c1sc2nc(-c3ccc(F)cc3)cn2c1C	-0.2	-1.5%
47	COc1cccc(-c2nc3c(C#N)c[nH]n3c2NC2CCCCC2)c1	0.9	1.4%
48	COc1c(C)cc(S(=O)(=O)NCCc2c(C)[nH]c3ccccc23)c(C)c1C	5.4	?
49	COc1cccc(NC(=O)Cn2c(=O)n(-c3cccc(OC)c3)c(=O)c3c4c(sc32)CCCC4)c1	0.7	3.1%
50	CC(=O)N1CCOc2cc(S(=O)(=O)Nc3c(C)cccc3C(C)C)c(Cl)cc21	0.4	1.8%

cpd	Structure	TRPML1 agonist	PINK1 expr mod
51	COc1ccc(C2CC(=O)c3c([nH]c(C(=O)OCCOc4ccccc4)c3C)C2)cc1OC (stereo not drawn)	0.6	0.7%
52	CCOC(=O)CNC(c1ccccc1)c1cc(Br)ccc1NC(=O)c1cccc(Cl)c1 (stereo not drawn)	2.6	8.1%
53	CCCN1CCN(C(=O)Cn2c(-c3cccs3)cc3cc(F)ccc32)CC1	-1.1	0.2%
54	CCN(Cc1ccccc1)c1ccc(/C=C/c2ccnc3ccccc23)cc1	?	1.8%
55	O=C(OCc1cc(=O)n2nc(-c3cccs3)sc2n1)c1ccccc1	-0.8	?
56	COc1ccc(CNC(=O)c2cc3cc4cc(OC)ccc4nc3o2)cc1	-0.6	-0.4%
57	Cc1ccc(-n2nc(-c3ccccc3)c3cnc4cc5c(cc4c32)OCO5)cc1C	0.3	0.0%
58	CC(NC(=O)c1ccc(Cn2c(=O)c3cccn3c3cccnc32)cc1)c1ccccc1 (stereo not drawn)	3.1	-0.6%
59	COc1ccc(-n2ccnc(NCc3ccc(C)cc3)c2=O)cc1OC	-0.4	-0.4%
60	CCOC(=O)c1c(C)[nH]c(C)c1S(=O)(=O)N(C)CC(=O)N1CCN(c2cccc(Cl)c2)CC1	1.4	-1.6%

cpd	Structure	TRPML1 agonist	PINK1 expr mod
61	COc1ccc2c(c1)CCc1c(C(=O)Nc3c(C)nn(Cc4ccccc4C)c3C)noc1-2	0.7	-2.1%
62	COc1ccccc1C(=O)Nc1ccc(-c2nc3ccccc3s2)c(C)c1	0.5	0.0%
63	COc1ccc(Cl)cc1NC(=O)c1nc(S(C)(=O)=O)ncc1N(Cc1ccc(C)cc1)Cc1ccco1	0.6	-0.9%
64	Cc1cc(C)c(S(=O)(=O)NCC(c2cccs2)S(=O)(=O)c2ccccc2)c(C)c1 (stereo not drawn)	1.6	5.9%
65	COC(=O)c1c(NC(=O)COc2c(C)cccc2C)sc2c1CCCC2	-0.7	1.1%
66	O=C(NC1CCCC1)c1ccc2c(=O)n(Cc3ccccc3)c(SCc3cccc(F)c3)nc2c1	1.1	3.5%
67	COc1ccc2c(C)c(CCC(=O)NCc3ccccc3Cl)c(=O)oc2c1C	-0.9	2.1%
68	Cc1noc(/C=C/c2ccccc2F)c1S(=O)(=O)N1CCC(C(=O)N2CCOc3ccccc32)CC1	-0.3	0.2%
69	O=c1n(Cc2ccc([N+](=O)[O-])cc2)c2ccccc2c2nc(-c3ccccc3)nn12	0.8	-0.4%
70	Cc1cccc(Cn2nnc3c(=O)[nH]c(C4CCN(C(=O)c5ccc(F)cc5)CC4)nc32)c1	-0.2	0.5%

cpd	Structure	TRPML1 agonist	PINK1 expr mod
71	CCOc1ccccc1C(=O)NC1(C(F)(F)F)C(=O)Nc2c1c(=O)[nH]c(=O)n2-c1ccc(F)cc1 (stereo not drawn)	-1.0	0.5%
72	CCn1c2c(c(=O)n3ncc(C(=O)Nc4ccc(Cl)cc4C)c13)CN(Cc1ccc(OC)cc1)CC2	1.9	0.7%
73	CC(=O)Nc1ccc(NC(=O)C2CCCN(S(=O)(=O)c3ccc4c(c3)CCCC(=O)N4)C2)cc1 (stereo not drawn)	0.9	0.7%
74	O=C(Nc1ccc2oc(-c3cccc4c(Br)cccc34)nc2c1)c1cccc(Cl)c1	-0.6	1.0%
75	COc1cc2c(C(=O)N(C)c3cc(Cl)ccc3OC)cn(CC(C)C)c(=O)c2cc1OC	-0.8	4.8%
76	COc1cccc(-n2c(-c3ccco3)nc3c(cnn3-c3ccc(Cl)cc3)c2=O)c1	0.0	5.2%
77	Cc1cc(O)c(C(c2ccc(Cl)cc2)N2CCN(c3ccccc3)CC2)c(=O)n1Cc1ccco1 (stereo not drawn)	0.5	-0.1%
78	Cc1ccc(CN2CCC(CNC(=O)Nc3cccc(C)c3C)C2)cc1 (stereo not drawn)	-0.9	-0.1%
79	CCC1CCCCN1CCCNC(=O)c1ccc2c(c1)N(Cc1ccccc1F)C(=O)c1ccccc1S2(=O)=O (stereo not drawn)	0.9	8.0%
80	O=C(CCCn1c(=O)c2sccc2n(Cc2ccc(Cl)cc2)c1=O)NCc1ccc2c(c1)OCO2	0.4	1.1%

cpd	Structure	TRPML1 agonist	PINK1 expr mod
81	Cc1sc2ncn(CC(=O)Nc3ccc(C(F)(F)F)cc3)c(=O)c2c1S(=O)(=O)N1CCN(C)CC1	1.2	0.7%
82	CCCS(=O)(=O)N1CCCC(C(=O)NCCCOC)C1 (stereo not drawn)	0.5	-5.3%
83	COc1ccc(NC(=O)CSc2nc(-c3ccccc3)nc3cc(=O)[nH]n23)cc1	-0.7	1.3%
84	COc1cccc(NC(=O)N2CCN3CCCCC3C2)c1 (stereo not drawn)	-0.5	-0.3%
85	Cc1cccc(NC(=O)N2CC(=O)Nc3sc4c(c3C2c2ccccc2)CCCC4)c1C (stereo not drawn)	-0.6	2.1%
86	O=C(NC1CCCC1)c1ccc2c(c1)N(Cc1ccccc1F)C(=O)c1ccccc1S2	4.5	-0.2%
87	CC1=C(c2ccc(F)cc2)S(=O)(=O)NC1=NCc1ccccc1Cl	-0.2	4.7%
88	CC(=O)c1ccc(NC(=O)Cn2c3ncccc3c(=O)n2-c2ccc(C)cc2)cc1	-0.7	0.6%
89	Cc1ccc(CCNS(=O)(=O)c2ccc3c(c2)CC(C)N3C(=O)C2CCC2)cc1 (stereo not drawn)	2.3	0.1%
90	Cc1ccc(C(C)C)c(OCc2ccc(C(=O)Nc3ccc(S(N)(=O)=O)cc3C)o2)c1	3.8	1.5%

cpd	Structure	TRPML1 agonist	PINK1 expr mod
91	Cc1ccccc1Cn1nnc2c(=O)[nH]c(C3CCCN(C(=O)c4ccc(C(C)(C)C)cc4)C3)nc21 (stereo not drawn)	2.8	-0.7%
92	C#CC(C)(CC)NC(=O)Cn1nnc(-c2ccc(OCc3ccccc3F)cc2)n1 (stereo not drawn)	4.6	5.0%
93	Cc1ccc(C)c(N2CCN(S(=O)(=O)c3ccc4c(c3)C(C(C)C)C(=O)N4)CC2)c1 (stereo not drawn)	2.1	11%
94	CCCCOc1ccc(C(=O)Nc2cc(-c3ccc(C)cc3)no2)cc1	-0.6	-0.6%
95	CCOC(=O)C(CC)N1CCN(Cc2ccc(F)cc2)C(=O)C1=O (stereo not drawn)	-0.9	-0.1%

# Only part of the results is shown; count on the stated rates, not on these rows.
